Compound activity from PubChem.
CBX7 inh = blocks human CBX7 binding to H3K27me3 peptide. O95931. AlphaScreen His6-CBX7 / biotin-H3K27me3 peptide binding; hits give low values. normalised signal (fraction of DMSO) (test concentration not listed). 66,000 compounds, 1.1% hits. AID 1224903; in the data active = normalised signal below about 0.5;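 note: 100 nL library stock added to about 20 µL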
Target sequence (O95931 whole entry, looked up): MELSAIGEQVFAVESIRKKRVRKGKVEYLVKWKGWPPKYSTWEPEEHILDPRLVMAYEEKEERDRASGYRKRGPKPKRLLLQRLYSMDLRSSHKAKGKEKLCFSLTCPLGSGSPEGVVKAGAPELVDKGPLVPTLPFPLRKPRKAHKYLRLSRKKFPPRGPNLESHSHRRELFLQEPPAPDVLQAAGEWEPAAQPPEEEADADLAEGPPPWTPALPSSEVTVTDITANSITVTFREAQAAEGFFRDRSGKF
CBX7 inh z-score = further read-out of CBX7 inh, marked with its call; z-score; measured here: z-score of CBX7 signal; some inactives read as strong as hits; reference of the scale not given here;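 same signal on another scale; lower means less binding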
* = called active by the depositor; & = joins results of further samples. These rows are one share of the data, so the mix of outcomes need not match the whole.

structure | CBX7 inh | CBX7 inh z-score
Cc1nnc(NC(=O)c2ccc(S(=O)(=O)N3CCC(C)CC3)cc2)o1 | 0.028* | -1.3*
Cc1cccc2nc(-c3ccsc3)c(Nc3ccccc3)n12 | 1 | 0.12
Cc1ccc(C)c(N(C)C(=O)CCc2nc(-c3ccccc3F)no2)c1 | 0.99 | -0.21
Cc1nc2c(-c3ccc(F)cc3)c(C)nn2c(C)c1CCC(=O)Nc1ccc(F)c(Cl)c1 | 1 | 0.17
COc1ccc(-c2cn(-c3ccc(OC)cc3)c(SCC(=O)Nc3ccccc3Cl)n2)cc1 | 0.82 | -5.9
Nc1nonc1-c1noc(-c2ccc(Cl)cc2Cl)n1 | 1 | 0.44
O=C1C2C3c4ccccc4C(c4ccccc43)C2C(=O)N1Cc1cccnc1 (stereo not drawn) | 0.88 | -2
CCn1cc(C(=O)N2CCN(c3ccc(F)cc3)CC2)c2cc(OC)c(OC)cc2c1=O | 0.98 | -0.23
CC(=O)NC12CC3CC(CC(CC(=O)O)(C3)C1)C2 | 0.94 | -0.68
CC(CCc1ccccc1)NC(=O)c1cccc(NC2=NC3CS(=O)(=O)CC3S2)c1 (stereo not drawn) | 0.87 | -1.5
CCN(CC)CCNC(=O)C1CCN(c2nn3c(=O)cc(C)nc3s2)CC1 | 1 | 0.12
Cc1c(NC(=O)COc2ccc3ccccc3c2)cccc1-c1nc2ncccc2o1 | 1.1 | 2.2
Cc1nc2c(-c3ccccc3)c(C)nn2c(C)c1CCC(=O)NCCC1=CCCCC1 | 1.2 | 2.2
Cc1ccc(NC(=O)c2cccc3c2C(=O)N(Cc2ccccn2)C3)cc1F | 0.94 | -1.1
CCOc1ccccc1C(=O)Nc1cc(OC)c(Cl)cc1OC | 1 | 1.3

Additional results follow.
structure | CBX7 inh | CBX7 inh z-score
O=C(c1cccnc1NCc1ccccc1)N1CCOCC1 | 0.76 | -4.3
COc1ccc(-c2nn(C)c(=O)c3ccccc23)cc1CNS(=O)(=O)c1ccc(Cl)cc1 | 1.4 | 3.5
COc1cccc(NC(=O)N(CCN(C)C)C(C)c2cccnc2)c1 (stereo not drawn) | 1 | 0.46
COC(=O)c1c(NC(=O)c2cc(Cl)ccc2OC)sc2c1CCCC2 | 1.1 | 0.75
Cc1cc(Cl)ccc1Nc1nc(Cc2ccccc2)nc2sc(C)c(C)c12 | 1.2 | 0.17
Cc1ccc(CNC(=O)CCCC2=NS(=O)(=O)c3ccccc3N2)cc1 | 1.1 | 1.6
Cc1onc(-c2ccccc2Cl)c1C(=O)N1CCCCCC1 | 1 | -0.03
Cc1ccc(-n2c3c(cc(C(=O)NCCO)c2=O)C(=O)CC(C)(C)C3)cc1 | 0.97 | -0.14
CCC(C)NC(=O)c1cc(=O)n(Cc2ccc(Cl)cc2)c2ccccc12 (stereo not drawn) | 1 | 0.42
Cc1cc(N2CCN(C)CC2)nc2ccc(NC(=O)c3cccnc3Cl)cc12 | 1 | 0.39
O=C(NC1CC1)c1cc(-c2ccncc2)nc2ccc(S(=O)(=O)N3CCOCC3)cc12 | 1.1 | 1.2
Cc1nc2sccn2c1-c1csc(Nc2cccc(C(=O)O)c2)n1 | 1 | 1.4
Cc1ccc(-c2nnc(SCC(=O)N3CCC(C)CC3)o2)cc1C | 1.3 | 3.1
Cc1ccc(CCNC(=O)Cn2nc(-c3ccc(C)cc3)ccc2=O)cc1 | 1 | 0.033
NC(=O)c1oc2ccccc2c1NC(=O)c1ccc(S(=O)(=O)N2CCc3ccccc32)cc1 | 0.91 | -1.4

New compounds follow:
structure | CBX7 inh | CBX7 inh z-score
NC(=O)c1oc2ccccc2c1NC(=O)CSc1ccccn1 | 0.99 | -0.15
CCN(CC)CCCNC(=O)CN1C(=O)COc2ccc(S(=O)(=O)N3CCC(C)CC3)cc21 | 1 | 0.22
COc1ccc(OC)c2[nH]c(=O)c(CCNC(=O)c3c(F)cccc3Cl)cc12 | 1 | 0.29
CC(=O)N1CCc2cc(S(=O)(=O)NC(C(=O)NCCCN3CC(C)CC(C)C3)C(C)C)ccc21 (stereo not drawn) | 1 | 0.54
CC12c3ccccc3C(c3ccccc31)C1C(=O)N(c3nccs3)C(=O)C12 (stereo not drawn) | 1.2 | 2.3
CCN(CC)S(=O)(=O)c1ccc2c(c1)N(CC(=O)Nc1ccncc1)C(=O)CS2 | 1.1 | 2.4
COc1cc(C)nc(N(CC(=O)O)S(=O)(=O)c2ccc(C)cc2)n1 | 1.1 | 2.2
Cc1ccc(NC(=O)C2CCN(S(=O)(=O)c3c(C)noc3/C=C/c3cccs3)CC2)cc1F | 0.98 | -0.81
CC(CC(=O)N1CCc2ccccc2C1)CC1=NS(=O)(=O)c2ccccc2N1 (stereo not drawn) | 0.98 | -0.58
COc1cccc(Cc2nc3cc(C(=O)O)ccc3[nH]c2=O)c1 | 0.93 | -0.7
Cc1ccc2cc(CCNC(=O)c3ccccc3Br)c(=O)[nH]c2c1 | 1 | 1.2
CC(NC(=O)c1cc(-c2cccc(Cl)c2)on1)c1ccccc1 (stereo not drawn) | 1 | 1.2
Cc1noc(C(=O)NC(C)C)c1Cl | 0.93 | -0.96
Cc1ccc(CN2C(=O)CCC2(C)C(=O)NC2CCCCCC2)cc1 (stereo not drawn) | 0.97 | -0.82
O=C(Cc1ccc(NC2=NC3CS(=O)(=O)CC3S2)cc1)N1CCCCCC1 (stereo not drawn) | 1 | 1

Arranged by value in CBX7 inh z-score (smallest number first): three of the compounds above.
SMILES	CBX7 inh z-score
CC(CC(=O)N1CCc2ccccc2C1)CC1=NS(=O)(=O)c2ccccc2N1 (stereo not drawn)	-0.58
NC(=O)c1oc2ccccc2c1NC(=O)CSc1ccccn1	-0.15
CCN(CC)CCCNC(=O)CN1C(=O)COc2ccc(S(=O)(=O)N3CCC(C)CC3)cc21	0.22

Next part.
structure | CBX7 inh | CBX7 inh z-score
OC1CCCCC1N1CCC(c2ccccc2)C1 (stereo not drawn) | 0.76 | -3.8
Cc1ccc(S(=O)(=O)N2C(=O)CCC2C(=O)N2CCCC2)cc1 (stereo not drawn) | 0.85 | -1.6
Cc1ccc(NC(=O)C2(c3ccccc3)CCOCC2)cc1 | 1.1 | 0.68
O=C(NC1CCN(Cc2ccccc2)CC1)[C@@H](c1ccccc1)N1Cc2ccccc2C1=O | 1 | 0.1
Cc1c(C(=O)Nc2cccc(F)c2)sc2ncn(CC(=O)N3CCCC(C)C3)c(=O)c12 (stereo not drawn) | 0.98 | -0.13
CC(NC(=O)CSc1nnc2c(n1)[nH]c1ccccc12)c1ccccc1 (stereo not drawn) | 0.86 | -2.2
CC(=O)Nc1nonc1-c1nc2ccccc2n1CCCC#N | 1&0.87 | 0.066&-2
O=C(O)CCS(=O)(=O)Cc1ccccc1Cl | 1.1 | 2
COC(=O)c1cc2ccsc2n1CC(=O)Nc1ccc(C)c(C)c1 | 1 | 0.21
CC(=O)N1CCc2cc(S(=O)(=O)NC(CC(C)C)C(=O)Nc3ccccc3C)ccc21 (stereo not drawn) | 0.94 | -1.4
COc1cccc(-c2nn(C)c3sc(C(=O)Nc4ccc(OC)c(OC)c4)cc23)c1 | 0.81 | -9.2
Cc1ccc(Cn2ccc(NC(=O)c3cc(-c4ccc5c(c4)OCO5)on3)n2)cc1 | 0.99 | -0.18
Cc1cccc(CN2C(=O)c3ccccc3Sc3ccc(C(=O)NC4CCCC4)cc32)c1 | 0.91 | -0.089
CCCCN(CCCC)CC(O)CN(c1ccc(OC)cc1)S(=O)(=O)c1ccc(C)cc1 (stereo not drawn) | 0.96 | -0.11
COc1ccc(OC)c(NC(=O)c2c(NCc3ccc(C)o3)sc3c2CCC3)c1 | 0.9 | -1.1

Complete entries from above. Order of values: CBX7 inh	CBX7 inh z-score
COc1cccc(-c2nn(C)c3sc(C(=O)Nc4ccc(OC)c(OC)c4)cc23)c1 as listed: 0.81	-9.2
OC1CCCCC1N1CCC(c2ccccc2)C1 (stereo not drawn) as listed: 0.76	-3.8
Cc1cccc(CN2C(=O)c3ccccc3Sc3ccc(C(=O)NC4CCCC4)cc32)c1 as listed: 0.91	-0.089
CC(NC(=O)CSc1nnc2c(n1)[nH]c1ccccc12)c1ccccc1 (stereo not drawn) as listed: 0.86	-2.2
O=C(NC1CCN(Cc2ccccc2)CC1)[C@@H](c1ccccc1)N1Cc2ccccc2C1=O as listed: 1	0.1

Other compounds follow:
structure | CBX7 inh | CBX7 inh z-score
CCc1ccc2c(c1)c(=O)c(S(=O)(=O)c1ccc(F)cc1)cn2CC(=O)Nc1ccc(F)cc1 | 1 | 0.29
COc1ccc2cc(CCNC(=O)c3ccc(C(C)(C)C)cc3)c(=O)[nH]c2c1 | 0.99 | -0.48
CCS(=O)(=O)N1CCC(C(=O)NCc2cccs2)CC1 | 1.1 | 1.1
CCOCCCNC(=O)CCN1N=C(c2ccccc2)CCC1=O | 1.2 | 0.34
CCCCOc1cccc(C(=O)Nc2c(C(=O)c3ccc(OC)cc3)oc3ccccc23)c1 | 1.6 | 2.2
Cc1nc2c(C(=O)N(C)Cc3ccccc3)c[nH]n2c(=O)c1Cc1ccccc1F | 0.79 | -0.28
O=C(Nc1ccc([N+](=O)[O-])cc1Cl)c1nn2c(C(F)(F)F)cc(-c3ccc(Cl)cc3)nc2c1Cl | 0.93 | -0.95
O=C(CSc1nnnn1-c1ccc(F)c(Cl)c1)NCCc1ccccc1 | 1.1 | 0.36
COC(=O)c1cccc(N2C(=O)C3C(C2=O)C2(C)C=CC3(C)O2)c1 (stereo not drawn) | 1 | 0.34
Fc1cnc(Nc2ccc(Br)cc2)nc1Nc1ccc(Br)cc1 | 1 | 0.18
COc1ccc(Cn2c(=O)[nH]c3cc(C(=O)N4CC=C(c5ccccc5)CC4)ccc3c2=O)cc1 | 0.86 | -3.5
Cc1ccc(CCNC(=O)CN2C(=O)COc3ccccc32)cc1 | 1 | 1.2
CC(C)NC(=O)CCN1C(=O)COc2ccccc21 | 1 | 0.77
CCc1nnc(NC(=O)COc2ccc(C)cc2C)s1 | 1 | 0.041
CCc1ccccc1NC1c2ccccc2C(=O)N1Cc1ccccc1 (stereo not drawn) | 1.1 | 1.9

(listing goes on)
structure | CBX7 inh | CBX7 inh z-score
CCOC(=O)c1[nH]c2c(c1Cc1ccccc1C)C(=O)CC(C)(C)C2 | 0.96 | -0.55
Cc1nc2c(-c3ccc(F)cc3)c(C)nn2c(C)c1CCC(=O)Nc1ccccc1 | 1.1 | 1.6
CCc1nn(CC(=O)Nc2nnc(N3C(C)CCCC3C)s2)c2ccccc12 (stereo not drawn) | 0.89 | -1.6
Cc1cc(=O)n2nc(N3CCC(C(=O)NC4CCC(C)CC4)CC3)sc2n1 (stereo not drawn) | 1 | 0.4
CCOC(=O)c1cnc2c(C)c(Cl)ccc2c1Nc1cc(C)ccc1OC | 1.2 | 4.7
O=C(CCc1nc2ccccc2[nH]1)N1CCN(c2cccc(Cl)c2)CC1 | 1.1 | 2.9
CCn1c(=O)cc(OCC(=O)Nc2ccccc2C)c2ccccc21 | 1 | 0.75
Cc1cccc(-c2nc(CSCC(=O)N3CCCc4ccccc43)c(C)o2)c1 | 0.71 | -2.3
CCOC(=O)CSc1nc2cc(C(=O)N3CCOCC3)ccc2c(=O)n1C1CCCCC1 | 1.1 | 1.6
CCC(C)Cn1c(COc2ccc(OC)cc2)nc2ccccc21 (stereo not drawn) | 1.1 | 1.4
O=C(CN1CCOCC1)Nc1ccc2nc3n(c(=O)c2c1)CCCCC3 | 1 | 0.76
COc1ccc(-c2csc(NC(=O)c3ccc(C(=O)c4ccccc4)cc3)n2)cc1 | 1 | 1.2
CC(C)c1ccc(NC(=O)CNC(=O)Cn2cnc3ccccc3c2=O)cc1 | 0.96 | -1.2
O=C(Nc1ccccc1Oc1ccc(Br)cc1)c1ccccc1 | 0.97 | -0.56
CCCCC(=O)Nc1ccc(Cl)c(-c2nc3cc(C)cc(C)c3o2)c1 | 1 | 1.4

Other entries follow.
structure | CBX7 inh | CBX7 inh z-score
CCc1ccc(NC(=O)CCCC2=NS(=O)(=O)c3ccccc3N2)cc1 | 0.94 | -0.97
CCCN1CCN(CCCNC(=O)CN2C(=O)C(CC)Oc3ccc(C)cc32)CC1 (stereo not drawn) | 1.1 | 2.9
CCC1CCCCN1C(=O)CSc1nnc(-c2ccccc2)o1 (stereo not drawn) | 0.99 | -0.021
COCCN(CCOC)S(=O)(=O)c1ccc(C(=O)Nc2nnc(-c3ccc(F)cc3)o2)cc1 | 0.025* | -4.3*
CCC1Oc2ccccc2N(CC(=O)NCCCN2CCC(Cc3ccccc3)CC2)C1=O (stereo not drawn) | 0.98 | -0.63
O=[N+]([O-])c1ccc(-c2nc(-c3cccnc3)no2)cc1 | 0.89 | -2.7
CCN(CC)c1nc(C)nc2sc(C(=O)Nc3ccc4c(c3)OCCO4)c(C)c12 | 0.99 | -0.37
CCOC(=O)N1CCc2c(sc(NCc3ccc(OC)cc3)c2C(=O)Nc2cc(OC)ccc2OC)C1 | 0.76 | -12
COc1ccc(CNCC2(c3ccccc3)CCCC2)c(OC)c1 | 0.87 | -0.29
CCN(c1cccc(C)c1)S(=O)(=O)c1ccc2[nH]cc(C(=O)NCc3ccc(F)cc3)c(=O)c2c1 | 1 | 0.94
COc1cccc2sc(NC(=O)c3ccc(S(=O)(=O)N4CCC(C)CC4)cc3)nc12 | 1.1 | 1.4
O=C(NCc1ccccc1)c1cc(-c2ccc(Cl)cc2)on1 | 1 | 0.054
Cc1ccc(NCc2nc3ccccc3n2C)cc1 | 0.91 | -3.4
COc1ccc(CCNC(=O)CCc2c(C)nc3cc(-c4cccc(F)c4)nn3c2C)cc1OC | 0.93 | -1.1
COc1ccc2oc(-c3ccc(NC(=O)c4cccc(Br)c4)cc3)nc2c1 | 1 | 0.0013

Later entries:
structure | CBX7 inh | CBX7 inh z-score
Cc1c(C(=O)Nc2cccc(C(F)(F)F)c2)oc2ccc(S(=O)(=O)N3CCCC3)cc12 | 1 | 0.83
CN(C)CCCNC(=O)c1cc(-c2ccc(Br)cc2)nc2ccccc12 | 1 | 1.1
CC1CCCCN1CC(=O)Nc1nc(-c2ccccc2)cs1 (stereo not drawn) | 0.91 | -1
COc1ccc(-n2nc(C(=O)NCC(=O)NC3CCCCC3)c3ccccc3c2=O)cc1OC | 0.99 | -0.12
O=C(Nc1cccc(F)c1)C1CCCN1S(=O)(=O)c1cccc2cccnc12 (stereo not drawn) | 0.98 | -0.7
O=C(O)CCc1ccc(-c2ccc(F)cc2)n1-c1cccc(C(F)(F)F)c1 | 1 | -0.0091
